Ecoli rRNA inh = inhibitors of bacterial rRNA selective over humanized ribosomes; GFP signal change (wild-type ribosome), % (test concentration not listed); E. coli WT GFP vs humanized-ribosome RFP mutants, fluorescence, 24 h; hits give low values; DMSO median 0, no signal -100; hit rate 1.6% among 350,000;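 active = significant combined selectivity score with lowered wild-type GFP, culture density cut under 30%, mutant RFP and density less affected; inactive = any of these conditions unmet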; also: one replicate is shown; some compounds called inactive have numbers as strong as hits
Ecoli rRNA inh OD600 = recorded beside Ecoli rRNA inh, whose call it bears; OD600 change, %; measured here: OD600 growth;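 optical density of the mix in the first replicate; 0 = DMSO median and -100 = no signal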
Ecoli rRNA inh RFP = also measured in Ecoli rRNA inh; calls as there; RFP signal change, %; measured here: RFP humanized mutant strains;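 first replicate; 0 = DMSO median and -100 = no signal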
Numbers without * were called inactive. These rows are one share of the data. The share of hits here may be higher or lower than overall.

For CCCCCCN1C[C@H](n2cc(C3CC3)nn2)[C@@H](O)C[C@@H]1c1ccc(Cl)cc1 the results were Ecoli rRNA inh 13, Ecoli rRNA inh OD600 8 and Ecoli rRNA inh RFP -0.4.
Screening Cc1ccc(S(=O)(=O)NCC[C@@H]2CC[C@H](NC(=O)Nc3cccc(F)c3)[C@H](CO)O2)cc1 returned Ecoli rRNA inh -1, Ecoli rRNA inh OD600 -4 and Ecoli rRNA inh RFP -0.6.
For C[C@@H]1CN([C@@H](C)CO)C(=O)Cc2cc(NC(=O)CCCCCC(=O)Nc3ccccc3N)ccc2O[C@H]1CN(C)C(=O)Nc1ccc2c(c1)OCO2 the results were Ecoli rRNA inh 4, Ecoli rRNA inh OD600 9 and Ecoli rRNA inh RFP -0.4.
CC(C)CC#Cc1ccc2c(c1)O[C@@H](CN(C)C(=O)c1ccccn1)[C@@H](C)CN([C@@H](C)CO)S2(=O)=O was read as Ecoli rRNA inh 4, Ecoli rRNA inh OD600 -10 and Ecoli rRNA inh RFP 3.8.
COCC(=O)Nc1ccc2c(c1)C(=O)N(C)[C@H]1CC[C@H](CC(=O)NCC3CC3)O[C@H]1CO2 was read as Ecoli rRNA inh 4, Ecoli rRNA inh OD600 9 and Ecoli rRNA inh RFP -0.9.
`O=C(C[C@H]1CC[C@H](NC(=O)Nc2cc(F)ccc2F)[C@@H](CO)O1)NCc1ccc2c(c1)OCO2` gave Ecoli rRNA inh -8, Ecoli rRNA inh OD600 -3 and Ecoli rRNA inh RFP 1.0.
Screening C[C@@H]1CN([C@@H](C)CO)C(=O)Cc2cc(NC(=O)Nc3ccc(C(F)(F)F)cc3)ccc2O[C@H]1CN(C)C(=O)Nc1cccc2ccccc12 returned Ecoli rRNA inh -3, Ecoli rRNA inh OD600 -4 and Ecoli rRNA inh RFP 1.4.
Screening C[C@@H]1CCCCO[C@@H](CN(C)S(=O)(=O)c2ccccc2)[C@@H](C)CN([C@@H](C)CO)C(=O)c2cc(NC(=O)c3ccncc3)ccc2O1 returned Ecoli rRNA inh 2, Ecoli rRNA inh OD600 5 and Ecoli rRNA inh RFP 0.8.
C[C@@H]1CCCCO[C@H](CN(C)Cc2ccc(C(F)(F)F)cc2)[C@@H](C)CN([C@H](C)CO)C(=O)c2cc(NS(=O)(=O)c3ccccc3)ccc2O1 was read as Ecoli rRNA inh 4, Ecoli rRNA inh OD600 -7 and Ecoli rRNA inh RFP 15.
Screening C[C@@H]1CN([C@H](C)CO)C(=O)c2cc(NS(=O)(=O)c3ccc(F)cc3)ccc2O[C@H]1CN(C)C(=O)Nc1ccc(C(F)(F)F)cc1 returned Ecoli rRNA inh -4, Ecoli rRNA inh OD600 -10 and Ecoli rRNA inh RFP -0.6.

Structures above that have sulfur, in the order listed:
Screening Cc1ccc(S(=O)(=O)NCC[C@@H]2CC[C@H](NC(=O)Nc3cccc(F)c3)[C@H](CO)O2)cc1 returned Ecoli rRNA inh -1, Ecoli rRNA inh OD600 -4 and Ecoli rRNA inh RFP -0.6.
CC(C)CC#Cc1ccc2c(c1)O[C@@H](CN(C)C(=O)c1ccccn1)[C@@H](C)CN([C@@H](C)CO)S2(=O)=O was read as Ecoli rRNA inh 4, Ecoli rRNA inh OD600 -10 and Ecoli rRNA inh RFP 3.8.
Screening C[C@@H]1CCCCO[C@@H](CN(C)S(=O)(=O)c2ccccc2)[C@@H](C)CN([C@@H](C)CO)C(=O)c2cc(NC(=O)c3ccncc3)ccc2O1 returned Ecoli rRNA inh 2, Ecoli rRNA inh OD600 5 and Ecoli rRNA inh RFP 0.8.
C[C@@H]1CCCCO[C@H](CN(C)Cc2ccc(C(F)(F)F)cc2)[C@@H](C)CN([C@H](C)CO)C(=O)c2cc(NS(=O)(=O)c3ccccc3)ccc2O1 was read as Ecoli rRNA inh 4, Ecoli rRNA inh OD600 -7 and Ecoli rRNA inh RFP 15.
Screening C[C@@H]1CN([C@H](C)CO)C(=O)c2cc(NS(=O)(=O)c3ccc(F)cc3)ccc2O[C@H]1CN(C)C(=O)Nc1ccc(C(F)(F)F)cc1 returned Ecoli rRNA inh -4, Ecoli rRNA inh OD600 -10 and Ecoli rRNA inh RFP -0.6.

Other structures follow:
For COC(=O)C[C@H]1CC[C@H]2[C@@H](COc3ccc(NC(=O)Nc4ccccc4C)cc3C(=O)N2C)O1 the results were Ecoli rRNA inh -1, Ecoli rRNA inh OD600 2 and Ecoli rRNA inh RFP -1.5.
Cc1ccc(C(O)c2ncc(-c3ccc(Cl)cc3)[nH]2)c(C)c1 (stereo unspecified) was read as Ecoli rRNA inh -21, Ecoli rRNA inh OD600 -60 and Ecoli rRNA inh RFP 15.
COc1ccc(S(=O)(=O)Nc2ccc3c(c2)C(=O)N([C@H](C)CO)C[C@@H](C)[C@@H](CN(C)Cc2ccc(Oc4ccccc4)cc2)O3)cc1 was read as Ecoli rRNA inh 5, Ecoli rRNA inh OD600 -1 and Ecoli rRNA inh RFP 12.
For C/C=C/c1ccc2c(c1)O[C@@H](CN(C)C(=O)Cc1ccncc1)[C@@H](C)CN([C@@H](C)CO)S2(=O)=O the results were Ecoli rRNA inh -2, Ecoli rRNA inh OD600 7 and Ecoli rRNA inh RFP -0.2.
`CN1C(=O)c2cc(NC(=O)C3CCC3)ccc2OC[C@H]2O[C@H](CC(=O)NCC3CCCCC3)CC[C@@H]21` gave Ecoli rRNA inh -1, Ecoli rRNA inh OD600 3 and Ecoli rRNA inh RFP -1.5.
For C[C@H](O)C#Cc1cnc2c(c1)C(=O)N([C@@H](C)CO)C[C@@H](C)[C@H](CN(C)C(=O)CC1CC1)O2 the results were Ecoli rRNA inh 1, Ecoli rRNA inh OD600 10 and Ecoli rRNA inh RFP -1.1.
Screening COc1cccc(C#Cc2ccc([C@@H]3[C@@H](CO)N4C(=O)CN(S(=O)(=O)c5ccccc5C)C[C@@H]34)cc2)c1 returned Ecoli rRNA inh 7, Ecoli rRNA inh OD600 15 and Ecoli rRNA inh RFP -4.0.
For C[C@@H]1CN([C@@H](C)CO)C(=O)c2cc(-c3cncnc3)cnc2O[C@@H]1CN(C)CC1CCOCC1 the results were Ecoli rRNA inh -1, Ecoli rRNA inh OD600 11 and Ecoli rRNA inh RFP -0.2.
For CNC[C@H]1Oc2c(cccc2N(C)C)C(=O)N(C)C[C@@H]1C the results were Ecoli rRNA inh 0, Ecoli rRNA inh OD600 2 and Ecoli rRNA inh RFP -1.0.
`CCC(=O)N1[C@@H](CO)[C@@H](c2ccccc2)C12CN(C(=O)Nc1cccc(OC)c1)C2` gave Ecoli rRNA inh 2, Ecoli rRNA inh OD600 9 and Ecoli rRNA inh RFP -2.3.
Screening COc1ccc(OC(=O)N(C)C[C@H]2OCc3cn(nn3)CCCC(=O)N([C@H](C)CO)C[C@@H]2C)cc1 returned Ecoli rRNA inh -2, Ecoli rRNA inh OD600 8 and Ecoli rRNA inh RFP -3.7.
O=C(CC(F)(F)F)N1C[C@H]2[C@@H](c3ccccc31)[C@H](CO)N2CC1CCCCC1 was read as Ecoli rRNA inh -5, Ecoli rRNA inh OD600 -4 and Ecoli rRNA inh RFP -2.2.
CC(C)NC(=O)Nc1ccc2c(c1)C(=O)N([C@@H](C)CO)C[C@H](C)[C@@H](CN(C)C)OCCCC[C@H](C)O2 was read as Ecoli rRNA inh 4, Ecoli rRNA inh OD600 21 and Ecoli rRNA inh RFP -1.2.
For CCC(=O)Nc1ccc2c(c1)OC[C@@H](C)N(Cc1cccnc1)C[C@@H](C)[C@@H](OC)CN(C)C2=O the results were Ecoli rRNA inh 0, Ecoli rRNA inh OD600 -3 and Ecoli rRNA inh RFP -2.4.
Screening Cc1ccccc1-c1ccc2c(c1)O[C@@H](CN(C)C)[C@H](C)CN([C@H](C)CO)S2(=O)=O returned Ecoli rRNA inh -2, Ecoli rRNA inh OD600 -9 and Ecoli rRNA inh RFP -2.0.
Screening N#C[C@@H]1[C@H](c2ccc(-c3ccccc3)cc2)[C@H](CO)N1C(=O)Cc1ccccc1 returned Ecoli rRNA inh -20, Ecoli rRNA inh OD600 -58 and Ecoli rRNA inh RFP 0.2.
For C[C@@H]1CN([C@H](C)CO)C(=O)c2cccc(NS(C)(=O)=O)c2O[C@H]1CN(C)Cc1ccc(-c2ccccc2)cc1 the results were Ecoli rRNA inh 2, Ecoli rRNA inh OD600 -2 and Ecoli rRNA inh RFP 2.4.
Screening O=C(NCc1ccco1)c1ccc2nc([C@@H]3O[C@H](CO)[C@H](O)[C@H](O)[C@H]3O)[nH]c2c1 returned Ecoli rRNA inh 8, Ecoli rRNA inh OD600 11 and Ecoli rRNA inh RFP 1.0.
For Cc1noc(C)c1NC(=O)N[C@H]1C=C[C@H](CC(=O)Nc2ccccc2)O[C@H]1CO the results were Ecoli rRNA inh 2, Ecoli rRNA inh OD600 -2 and Ecoli rRNA inh RFP -1.8.
For COc1ccc(NC(=O)N(C)C[C@H]2Oc3c(NC(=O)c4ccc(-c5nccs5)cc4)cccc3C(=O)N([C@H](C)CO)C[C@H]2C)cc1 the results were Ecoli rRNA inh -5, Ecoli rRNA inh OD600 0 and Ecoli rRNA inh RFP 1.4.
C[C@H]1CCCCO[C@H](CN(C)S(=O)(=O)c2ccccc2)[C@@H](C)CN([C@@H](C)CO)C(=O)c2cc(NC(=O)NC3CCCCC3)ccc2O1 was read as Ecoli rRNA inh 1, Ecoli rRNA inh OD600 4 and Ecoli rRNA inh RFP 0.1.
`O=C(Cc1ccccc1)N[C@H]1C=C[C@H](CC(=O)N2CCCCC2)O[C@H]1CO` gave Ecoli rRNA inh 2, Ecoli rRNA inh OD600 4 and Ecoli rRNA inh RFP 0.0.
For COc1ccccc1NC(=O)N1CC(=O)N2[C@H](CO)[C@@H](c3ccc(C#CC4CC4)cc3)[C@H]2C1 the results were Ecoli rRNA inh -3, Ecoli rRNA inh OD600 0 and Ecoli rRNA inh RFP -0.2.
Screening COc1cccc(NC(=O)C[C@H]2CC[C@@H]3[C@H](COc4ccc(NC(=O)C5CCC5)cc4C(=O)N3C)O2)c1 returned Ecoli rRNA inh 4, Ecoli rRNA inh OD600 -2 and Ecoli rRNA inh RFP -1.8.
`C[C@@H]1CCCCO[C@@H](CN(C)Cc2ccc(C(F)(F)F)cc2)[C@H](C)CN([C@H](C)CO)C(=O)c2cc(NC(=O)c3ccccc3)ccc2O1` gave Ecoli rRNA inh -2, Ecoli rRNA inh OD600 -7 and Ecoli rRNA inh RFP 2.4.
COc1ccc(C#Cc2ccc3c(c2)[C@@H]2[C@@H](CCN2C(=O)c2cccc(F)c2)[C@@H](CO)N3)cc1 was read as Ecoli rRNA inh 2, Ecoli rRNA inh OD600 7 and Ecoli rRNA inh RFP -1.5.
OC[C@H]1[C@H](c2ccc(-c3cccc(F)c3)cc2)[C@H]2CN(CCC(F)(F)F)CCCCN21 was read as Ecoli rRNA inh -58, Ecoli rRNA inh OD600 -76 and Ecoli rRNA inh RFP -17.
`CN1CCN(C(=O)C[C@H]2CC[C@@H]3[C@H](COC[C@@H](O)CN3CC3CCCCC3)O2)CC1` gave Ecoli rRNA inh 2, Ecoli rRNA inh OD600 5 and Ecoli rRNA inh RFP -3.3.
Screening C[C@@H]1CN([C@@H](C)CO)C(=O)c2cc(NS(=O)(=O)c3ccc(F)cc3)ccc2O[C@@H](C)CCCCO[C@@H]1CN(C)Cc1ccc2c(c1)OCO2 returned Ecoli rRNA inh 1, Ecoli rRNA inh OD600 -34 and Ecoli rRNA inh RFP 14.
`FC(F)(F)Oc1ccccc1C(c1nnnn1C1CCCCC1)N1CCN(C/C=C/c2ccccc2)CC1` (stereo unspecified) gave Ecoli rRNA inh -1, Ecoli rRNA inh OD600 -2 and Ecoli rRNA inh RFP 8.4.
`C[C@@H]1CN([C@@H](C)CO)C(=O)c2cc(NC(=O)CCC(F)(F)F)ccc2O[C@H]1CN(C)C(=O)Nc1ccc(C(F)(F)F)cc1` gave Ecoli rRNA inh -1, Ecoli rRNA inh OD600 -1 and Ecoli rRNA inh RFP -0.5.
`CCCCCCCCN1C(=O)[C@H](CC(=O)NCc2ccc(OC)c(OC)c2)C[C@@]2(C(=O)OC)CC(C)(C)CC=C12` gave Ecoli rRNA inh 0, Ecoli rRNA inh OD600 1 and Ecoli rRNA inh RFP -0.8.
For COc1cccc(C(=O)N2C[C@H]3[C@@H](c4ccccc42)[C@H](CO)N3C(=O)c2cccc(F)c2)c1 the results were Ecoli rRNA inh -1, Ecoli rRNA inh OD600 -7 and Ecoli rRNA inh RFP -1.4.
For C[C@H](CO)N1C[C@H](C)[C@@H](CN(C)C(=O)CN2CCOCC2)Oc2ncc(/C=C/c3ccccc3)cc2C1=O the results were Ecoli rRNA inh 1, Ecoli rRNA inh OD600 11 and Ecoli rRNA inh RFP -5.9.
COCCNC(=O)C[C@@H]1C[C@@H]2c3cc(NC(=O)Nc4ccccc4F)ccc3O[C@@H]2[C@H](CO)O1 was read as Ecoli rRNA inh 5, Ecoli rRNA inh OD600 6 and Ecoli rRNA inh RFP 0.3.
For O=C(C[C@H]1CC[C@H](NC(=O)Cc2cccnc2)[C@@H](CO)O1)NCc1ccc2c(c1)OCO2 the results were Ecoli rRNA inh 2, Ecoli rRNA inh OD600 1 and Ecoli rRNA inh RFP -0.2.
For COCC(=O)Nc1ccc2c(c1)[C@@H]1C[C@@H](CC(=O)N3CCCCC3)O[C@H](CO)[C@@H]1O2 the results were Ecoli rRNA inh 2, Ecoli rRNA inh OD600 -3 and Ecoli rRNA inh RFP -0.8.
O=C(C[C@H]1CC[C@H]2[C@@H](COC[C@@H](O)CN2S(=O)(=O)c2ccc(Oc3ccccc3)cc2)O1)NCCN1CCCCC1 was read as Ecoli rRNA inh 7, Ecoli rRNA inh OD600 5 and Ecoli rRNA inh RFP -2.3.
Screening COc1cccc(NC(=O)N(C)C[C@@H]2Oc3cc(/C=C/c4ccccc4)ccc3S(=O)(=O)N([C@H](C)CO)C[C@H]2C)c1 returned Ecoli rRNA inh 2, Ecoli rRNA inh OD600 8 and Ecoli rRNA inh RFP -1.4.

Screens deposited in PubChem by Broad Institute.
